Assay outcomes from PubChem.
Rango complex inh – prevents formation of the Rango-importin beta complex; Q14974; Rango CFP/YFP FRET sensor + importin beta, 45 min; Potency, µM (top dose mostly 92.2 µM), for the others: top-dose inhibition of complex formation; actives 0.031% (n = 340,000); AID 540263; active = rising FRET ratio curve, often small or poorly fitted; inconclusive = mostly compound fluorescence or quenching in the first reads; inactive = flat curves in all reads;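 also: potency is read from the fitted curve at half-maximal effect; 0% = DMSO wells and 100% = buffer wells lacking importin beta; nearly all actives have a fitted effect of over 15% in size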
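FRET biosensor Rango (snurportin 1 IBB between N-terminal EYFP and C-terminal Cerulean), 50 nM in PBS/1 mM DTT/0.02% Tween-20/0.1% BSA, preincubated 5 min RT with compound; 0.125 microM importin beta added, 45 min RT, CFP/YFP FRET ratio read.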
miR-21 reporter – miR-21 reporter, rising signal; 340,000 tested, under 10 active; AID 2288; Potency, µM (highest dose often 38.3 µM), for inactives: top-dose reporter change, positive = more light; HeLa miR-21 FLuc reporter, luciferase, 48 h; active = well fitted rising curve with a large enough effect; inconclusive = small, poorly fitted or top-dose-only effect; inactive = no such curve, though single readings can be large or run the other way;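 also: % of control where 0% means no effect; miR-21 action dims this reporter so a rising signal means less miR-21 action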
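HeLa cells stably expressing CMV-driven firefly luciferase with a downstream miR-21 binding sequence, endogenously expressing miR-21, were treated with titrations (up to about 40uM final) for 48 hours at 37 degree Celsius. Luciferase luminescence was read after lysis.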
GLA inh pH 4.5 – inhibitors of human alpha-galactosidase A at pH 4.5 | P06280 | activity change, negative = inhibition, % at 105 µM | 230,000 tested, under 10 active | purified enzyme, 4-MU-alpha-Gal fluorescence, pH 4.5; inconclusive = small, poorly fitted or top-dose-only inhibition, or a rising curve; inactive = flat fitted curve, though single readings scatter; no compound was filed as active;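 also: 0% = full activity with enzyme and -100% = basal without enzyme; dose as in the result columns while the protocol names 77 µM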
Target sequence (P06280 whole entry, looked up): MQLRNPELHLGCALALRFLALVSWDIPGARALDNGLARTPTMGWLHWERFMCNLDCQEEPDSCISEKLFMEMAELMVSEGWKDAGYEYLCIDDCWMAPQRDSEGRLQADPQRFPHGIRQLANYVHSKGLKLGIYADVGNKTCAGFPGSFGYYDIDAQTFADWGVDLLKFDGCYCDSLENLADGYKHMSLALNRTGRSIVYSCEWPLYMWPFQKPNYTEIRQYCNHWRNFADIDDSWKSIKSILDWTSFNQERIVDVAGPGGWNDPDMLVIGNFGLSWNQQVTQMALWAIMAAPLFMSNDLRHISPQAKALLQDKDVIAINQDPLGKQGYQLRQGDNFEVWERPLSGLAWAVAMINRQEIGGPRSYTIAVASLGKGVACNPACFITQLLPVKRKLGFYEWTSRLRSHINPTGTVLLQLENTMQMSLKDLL
Rango dissoc inh – prevents RanGTP from dissociating the Rango-importin beta complex | AID 540253 | O95149+P62826 | actives 0.071% (n = 340,000) | Biochemical FRET Rango-importin beta, RanGTP-induced dissociation | Potency, µM (top dose mostly 46.1 µM), inactives show at the highest dose activity change, negative = inhibition; active means falling FRET ratio curve, often poorly fitted, with flat reads before Ran was added; inconclusive means other falling curves, or compound fluorescence or quenching; inactive means flat or rising ratio curve;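 also: potency is read from the fitted curve at half-maximal effect; % of control where 0% means no effect; nearly all actives have a fitted effect of over 45% in size; -100% = wells without RanGTP and RCC1; the record marks most hits as doubtful in a second field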
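Rango/importin beta premix (0.1/0.25 uM final), PBS + 1 mM DTT + 0.02% Tween-20 + 0.1% BSA; cpd 5 min RT; FRET pre-read; + RanGTP-RCC1 (0.6 uM Ran, 2 mM GTP, 0.2 uM RCC1); 45 min RT; FRET post-read, ex 430, em 486/530 nm.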
Starred values were filed as active, the others as inactive; ? = inconclusive; nt = no result given; & = joins results of further samples; [ ] = remark or other dose.

Every second line gives: miR-21 reporter, Rango dissoc inh, GLA inh pH 4.5, Rango complex inh
COC(=O)C1(CCSC)NC(c2ccc(O)cc2)C2C(=O)N(c3ccc(F)cc3)C(=O)C21 (stereo unspecified)
    7%, 20%, nt, 1.1%
NC(=O)C1=C(c2ccccc2)c2ccccc2C1=O
    nt, 1%, nt, 1.5%
COc1cc(OC)c(C2=NOC(C(=O)Nc3ccc4c(c3)OCO4)C2)cc1Cl (stereo unspecified)
    -9%, 0%, -3, -3.3%
O=c1ccc(-c2nc3ccccc3n2Cc2ccc(Cl)cc2)c[nH]1
    9%, 0%, nt, -1.5%
COC(=O)C1[C@H]2SC(C)(C)C(C(=O)OC)N2C(=O)N1Cc1nc2ccccc2s1 (stereo partly specified)
    -5%, -10%, nt, 3.8%
Cn1cc(C(=O)NS(=O)(=O)Nc2ccc(Br)cn2)c2ccccc21
    -31%, 15%, nt, 0.3%
CCN(CC)C(=O)c1cccc(NC(=O)c2cc(C3CC3)nc3c2cnn3C(C)C)c1
    nt, -22%, nt, ?
COc1ccccc1/C=C\C=N\NC(=O)c1ccco1
    -51%, 10%, -8, -1.8%
Cc1ccc(C)c(N(CC(=O)NCc2ccco2)C(=O)CNS(=O)(=O)c2ccc(F)cc2)c1
    -2%, 1%, nt, -0.6%
CCOC(=O)N1CCN(C(=O)c2ccc3c(c2)N=C(CC)c2cc(C)ccc2S3)CC1
    14%, -8%, nt, 1.4%
COc1ccc(/C=C/C(=O)Nc2ccc(C)cc2)cc1S(=O)(=O)N1CCOCC1
    26%, 11%, -11, 0.3%
COc1ccccc1CN(C(=O)Cc1cccs1)C(C(=O)NC1CCCC1)c1ccncc1 (stereo unspecified)
    0%, ?, 10, 5.0%
Cc1cccc(N2C(=O)C3C(c4ccccc4)OC4(C(=O)c5ccccc5C4=O)C3C2=O)c1 (stereo unspecified)
    0%, -3%, 4, -0.3%
COC(=O)c1ccc2c(CCO)c[nH]c2c1
    -38%, 12%, nt, -1.2%
CC(C)CN(C(=O)C(c1ccccc1)c1ccccc1)c1c(N)n(CC(C)C)c(=O)[nH]c1=O
    2%, 18%, -2, 0.1%
c1ccc(-c2nnc(-c3ccccn3)s2)nc1
    -18%, 9%, 8, 2.2%
COc1ccc(Cl)cc1C(=O)NNC(=S)NC(=O)c1ccc(F)c(F)c1
    0%, -17%, nt, 0.5%
CC1(C)CC(=O)C2=C(C1)OC1=C(C(=O)CC(C)(C)C1)C2c1ccccc1
    0%, -3%, 0, -0.6%
Cc1ccccc1CN1CCNC(=O)C1CC(=O)O (stereo unspecified)
    1%, -18%, -7, -2.3%
CC(C)N(CCC#N)C(=O)Nc1ccc2c(c1)CCO2
    -13%, 25%, -1, 3.5%
COc1ccc(/C=N/NC(=O)CNC(=O)c2ccc3c(c2)OCCO3)cc1OC
    -9%, -11%, 4, 6.5%
CCS(=O)(=O)c1nc(S(=O)(=O)c2ccc(C)cc2)c(NCCCn2ccnc2)s1
    3%, ?, nt, 5.2%
CN(Cc1ccccc1)C(=O)CCC(=O)N(C)Cc1ccccc1
    -40%, 5%, 5, -2.1%
COc1ccc(S(=O)(=O)N(CC(=O)Nc2cc(C)on2)Cc2ccccc2)cc1
    -5%, -8%, 2, 3.6%
CC1CC(C)(C)NC(=S)N1CCC(=O)N1CCc2ccccc2C1 (stereo unspecified)
    2%, -8%, -7, -3.1%
Nc1nc2ccc(S(=O)(=O)c3ccc4nc(N)sc4c3)cc2s1
    -15%, 3%, 0, -1.3%
COC(=O)c1cccc(C(=O)Nc2ccc(F)cc2)n1
    -10%, -15%, -1, 1.5%
COc1cccc(CNC(=O)c2cc3c(cc2Cl)N2CCCCCC2=NS3(=O)=O)c1
    nt, -3%, nt, -0.7%
O=[N+]([O-])c1ccc(CN2CCCCCC2)s1
    1%, 11%, 4, -3.7%
CSCC[C@H](NC(=O)Nc1cccc(Br)c1)C(=O)O
    -1%, 2%, -1, -2.1%
CCSc1ncnc2sc3c(c12)CCC3
    0%, -8%, 11, -2.0%
O=C(O)CCn1cc(-c2ccc(F)cc2)nc1-c1ccncc1
    nt, ?, nt, 0.7%
NC(=O)N[C@@H](Cc1c[nH]c2ccccc12)C(=O)OCC(=O)N1CCCCC1
    0%, 0%, 5, -0.6%
C/C(=N\n1c(C)nc2ccccc2c1=O)c1ccc(N)cc1
    nt, -9%, nt, -0.2%
CCN(C)c1ccc(/C=N\n2nnnc2N)cc1
    -28%, ?, -2, ?
Cc1ccsc1-c1nc(CN2CCCC2c2ccc(F)cc2)c(C)o1 (stereo unspecified)
    -11%, 25%, 0, 2.6%
O=C(O)C12CC3CC(C1)CC(n1ncc(NCc4ccco4)c(Cl)c1=O)(C3)C2
    8%, -6%, 2, 0.3%
Cc1c(CN(C)C(=O)c2sc3cc(Cl)ccc3c2Cl)cnn1C
    21%, 11%, -9, 5.4%
Cc1nc(N)[nH]c(=O)c1CCCNc1ccc([N+](=O)[O-])cc1
    nt, -8%, nt, ?
CCOc1ccc(NC(=S)NCCN2CCN(Cc3ccccc3)CC2)cc1
    -1%, 1%, -1[21.1 µM], -2.3%
Cc1ccc(S(=O)(=O)N2CCC(C(=O)NCC(C)(C)N3CCOCC3)CC2)c(C)c1
    nt, -8%, nt, -1.3%
CCCN(CC(=O)Nc1ccc(C(N)=O)cc1)CC(=O)Nc1ccc(Cl)cc1Cl
    -12%, 8%, 5, 2.4%
O/N=C/c1cc(Br)ccc1OCc1cccc(F)c1
    -29%, -8%, -12, -3.3%
Cc1nc(-c2nnc(-c3ccccc3)o2)c(C(F)(F)F)o1
    -28%, -2%, -5, -2.4%
CCOC(=O)c1[nH]c(=O)[nH]c1CSCCO
    -1%, 4%, 3, 1.7%
CN1C(=O)/C(=C2/C=CC=CN2C)OC1=S
    -4%, -11%, -7, -2.0%
COc1ccc(CNC(=O)CN(C)CC(=O)Nc2ccccc2Br)cc1
    nt, -6%, nt, 0.2%
COc1ccc(CN2C(=O)c3ccccc3C2C(=O)NC2CCCCCC2)c(OC)c1 (stereo unspecified)
    -2%&0%, -5%, -3[21.1 µM], 0.6%
Cn1c(SCc2ccc([N+](=O)[O-])cc2)nc2c(c1=O)SCC2
    1%, 1%, -3, -0.1%
Cc1nc2ccc(S(=O)(=O)NCC(=O)Nc3cccc(F)c3)cc2s1
    -5%, -9%, 4, 3.9%
COC(=O)c1ccc(NC(=O)c2cccc(NC(=O)c3ccccc3)c2)cc1
    -11%, 15%, nt, ?
COc1ccc(N2CCN(CCC3Oc4cc([N+](=O)[O-])ccc4NC3=O)CC2)cc1 (stereo unspecified)
    5%, -5%, -1, -0.8%
O=C(COC(=O)c1ccccc1NS(=O)(=O)c1cccs1)NCC12CC3CC(CC(C3)C1)C2
    -15%, -7%, 2, -1.1%
CNC(=S)N(CCc1c(C)[nH]c2ccc(C)cc12)Cc1cc(OC)c(OC)c(OC)c1
    -2%, -23%, -27, -3.5%
Cc1nc2ncnn2c(C)c1Cc1c(Cl)cccc1Cl
    -11%, -8%, 2, 0.9%
Cc1ccc(N2CC(C(=O)NCc3ccc(C)n3C)CC2=O)cc1 (stereo unspecified)
    3%, -3%, -7, -0.1%
Cc1nnsc1S(=O)c1ccc(Br)cc1 (stereo unspecified)
    24%, 2%, nt, 7.7%
CC(=O)Oc1ccc(/C(C)=N/N2CCN(Cc3ccc(C)cc3)CC2)cc1
    5%, -23%, nt, 0.1%
Cc1sc2ncn(CC(=O)NCCc3ccccc3)c(=O)c2c1C
    2%, -6%, -5, -1.8%
COC(=O)c1sc(S(=O)(=O)NCc2cccs2)c(C(=O)OC)c1C
    -2%, -4%, 1, -3.3%

(continued)
Every second line gives: miR-21 reporter, Rango dissoc inh, GLA inh pH 4.5, Rango complex inh
CCc1nnc(NC(=O)CSc2nccn2-c2ccccc2)s1
    -9%, 5%, -1, 2.2%
O=C(NCCCO)C(=O)NCc1ccncc1
    0%, -1%, -7, 0.2%
CCCSc1nc2c(c(=O)[nH]c(=O)n2C)n1Cc1ccccc1
    -7%, -16%, nt, 0.3%
Cc1ccc(S(=O)(=O)N2CCN(c3ccc(C(F)(F)F)cc3[N+](=O)[O-])CC2)cc1
    14%, -20%, -21, -0.7%
CC(C)[C@H](NS(=O)(=O)c1ccc2c(c1)OCCO2)C(=O)OCC(=O)Nc1ccccc1
    -24%, 0%, 2, 0.7%
Cc1ccc(NC(=O)CN(C)C(=O)COC(=O)c2ccc(Cl)cc2O)cc1
    nt, 9%, nt, -2.4%
C[C@H](CO)N1C[C@H](C)[C@@H](CN(C)S(=O)(=O)c2cccs2)Oc2ccc(NC(=O)NC3CCCCC3)cc2C1=O
    nt, 20%, nt, 10%
CCN(CC)c1ccc(C(=O)Nc2cccc(F)c2)cc1
    -14%, 5%, -8, 0.4%
Nc1ccc(S(=O)(=O)N2CCc3ccccc32)cc1
    0%, -9%, nt, 0.0%
Cn1nc(-c2ccccc2)cc1NC(=O)Nc1ccc(C(C)(C)C)cc1
    8%, -3%, ?, -3.6%
Cc1ccc(NC(=O)CCCCCCCCCCC2COCCO2)c(C)c1 (stereo unspecified)
    -5%, 3%, -4, -1.6%
COc1ccccc1NC(=O)C(C)OC(=O)COc1cccc2c1OC(C)(C)C2 (stereo unspecified)
    nt, 11%, nt, 0.0%
CC(C)(C)NC(=O)CN(C(=O)CS(=O)CC(=O)Nc1ccc(F)cc1)c1ccccc1F (stereo unspecified)
    0%, 1%, -2, -0.9%
COc1ccc(-c2oc3ccc(-c4ccc5c(c4)OCO5)cc3c2C#CC2(O)CCCCC2)cc1
    nt, -1%, nt, 0.2%
COCCn1c(C2CCCCC2)nc2sc3ccccc3c(=O)c2c1=O
    -6%, -22%, 2, -6.4%
Cc1cccc(NC(=O)CSCC(=O)Nc2sccc2C#N)c1
    nt, 17%, nt, 1.8%
O=C(Cc1ccc(Cl)c(Cl)c1)N1CCOCC1
    -14%, 25%, nt, 1.6%
CN1CCN(CCOc2ccc(Cc3ccccc3)cc2)CC1
    -5%, 0%, nt, 0.4%
CC(C)C(NC(=O)c1ccco1)C(=O)OCC(=O)N1CC(=O)Nc2ccccc21 (stereo unspecified)
    nt, 22%, nt, 3.5%
Cc1noc(NS(=O)(=O)c2ccc(NC(=O)c3nn(-c4ccccc4)ccc3=O)cc2)c1C
    -2%, 3%, nt, -2.5%
O=C(N/N=C/c1cc([N+](=O)[O-])ccc1O)c1cccc2cc[nH]c12
    19%, -17%, -19, ?
Cc1cc(C(=O)Nc2ccc(C(=O)O)cc2)c(-c2ccccc2)o1
    -12%, 0%, -9, -0.6%
CCOc1ccc(NC(=O)CCn2ccnc2)cc1
    1%, 4%, nt, -1.2%
CC(=O)c1c(C)[nH]c(C(=O)COC(=O)CN2C(=O)C3CCCCC3C2=O)c1C (stereo unspecified)
    nt, -16%, nt, -3.1%
Cc1ccc(NC(=O)CSC2=C(C#N)C(c3ccc4c(c3)OCO4)CC(=O)N2)cc1C (stereo unspecified)
    -9%, -11%, 4, -5.0%
CCC(=O)N(CCC(Cc1ccccc1)c1ccco1)Cc1ccco1 (stereo unspecified)
    11%, -6%, 1, 2.0%
CC1CCCC(C)N1CCCNC(=O)CN1C(=O)c2cccnc2Oc2ccc(Cl)cc21 (stereo unspecified)
    0%, 2%, nt, ?
CCn1c(SCC(=O)Nc2cc(Cl)ccc2OC)nnc1C1CC1
    -1%, -13%, nt, ?
CCCn1c(N2CCN(S(=O)(=O)Cc3ccccc3)CC2)nc2ccccc21
    -3%, -1%, -1, -2.2%
NC(=O)c1cc(N2C(=O)C3CC=CCC3C2=O)ccc1N1CCCCC1 (stereo unspecified)
    -2%, -1%, 3, ?
CCCNC(=O)C(Cc1ccc(C(F)(F)P(=O)(OCC)OCC)cc1)NC(=O)c1ccc(C#N)cc1 (stereo unspecified)
    nt, -2%, nt, 0.5%
Clc1ccc(-c2csc(-c3ccno3)n2)cc1
    -17%, 42%, -3, 4.2%

Some of the compounds tested; count on the stated rates, not on these rows.
